# RE007 growth inh: less growth of the S. pombe RE007 Vpr strain; hit rate 0.21% among 360,000; Potency, µM (titrated, usually from 92.2 µM), inactives show at the highest dose activity change, negative = less growth; S. pombe RE007 Vpr strain, BacTiter-Glo ATP luminescence, 24 h; control for the full effect not named in the record; AID 651644; active = well fitted falling curve with a large enough effect; inconclusive = small, poorly fitted or top-dose-only effect; inactive = no such curve, though single readings can be large or run the other way;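 also: % is scaled to controls: 0 for no effect and ±100 for the full control effect; nearly all actives have a fitted effect of over 50% in size; the assay follows cell death caused by Vpr and the record does not say whether a fall means rescue or toxicity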
#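 Fission yeast RE007 carrying one integrated HIV-1 vpr copy, seeded at OD 0.01 in PMG+AL medium with 23 nL pinned compound. Grown 24 h at 30 degrees; viability read by BacTiter-Glo luminescence after 5 min.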
# StopGo reporter: FMDV 2A StopGo reporter, luciferase signal. human cells with a luciferase reporter of 2A StopGo recoding; control for the full effect not named in the record. Potency, µM (titrated, usually from 57.9 µM), for inactives: top-dose signal change, negative = less light. hit rate 1.2% among 410,000. AID 1159524; active = well fitted falling curve with a large enough effect; inconclusive = small, poorly fitted or top-dose-only effect; inactive = no such curve, though single readings can be large or run the other way; tested in HEK293T cells; also: % is scaled to controls: 0 for no effect and ±100 for the full control effect; nearly all actives have a fitted effect of over 45% in size; luciferase light after 4 h
# LASV entry inh: blocks Lassa virus binding to or entry into cells; Lassa virus pseudotype entry inhibition, cell reporter; control for the full effect not named in the record; Potency, µM (titrated, usually from 37.9 µM), for inactives: top-dose activity change, negative = inhibition, hits mostly inhibitors; hit rate 1.2% among 300,000; AID 540256; active means well fitted inhibition curve with a large enough effect; inconclusive means small, poorly fitted or top-dose-only effect, or effect the other way; inactive means flat fitted curve, though single readings scatter; tested in HEK293 cells; also: % is scaled to controls: 0 for no effect and ±100 for the full control effect; nearly all actives have a fitted effect of over 50% in size; luciferase read-out
# NS1 inh: inhibitors of influenza NS1 protein function; S. cerevisiae slowed by influenza A NS1, growth recovery by OD600; Potency, µM (top dose mostly 46.1 µM), inactives show top-dose activity, positive = more growth; AID 2326; hit rate 0.4% among 270,000; also: actives are rising curves; nearly all actives have a fitted effect of over 50% in size
#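 OD600 was taken as the measure of yeast growth restored by compound in an NS1-expressing S. cerevisiae strain. Cells had been washed out of glucose medium and diluted 1:100 into galactose -URA medium, pH 6.0.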
# SARS PLP yeast: inhibitors of SARS-CoV papain-like protease in yeast. S. cerevisiae expressing SARS-CoV PLpro, growth rescue; control for the full effect not named in the record. Potency, µM (top dose mostly 32.9 µM), without a hit: at the top dose activity, positive = growth rescue. hit rate 0.19% among 330,000. AID 485353; also: 0% is about no effect; nearly all actives have a fitted effect of over 55% in size; growth read by luminescence after 48 h
# Marburg entry inh: inhibitors of Marburg virus binding or cell entry; Marburg virus pseudotyped entry inhibition, cell reporter; control for the full effect not named in the record; about a third of the inactives were read at about 46 µM; hit rate 1.8% among 300,000; Potency, µM (series often up to 37.8 µM), for the others: top-dose activity change, negative = inhibition, actives largely listed as inhibitors; active = well fitted inhibition curve with a large enough effect; inconclusive = small, poorly fitted or top-dose-only effect, or effect the other way; inactive = flat fitted curve, though single readings scatter; tested in HEK293 cells; about a fifth of its hits are not listed in these tables; also: % is scaled to controls: 0 for no effect and ±100 for the full control effect; luciferase read-out
# Cruzain noTriton: cruzain (T. cruzi) inhibition without detergent. P25779. hit rate 2.3% among 200,000. Potency, µM, inactives show max response, negative = inhibition, actives largely listed as inhibitors. purified cruzain, Z-FR-AMC fluorescence, no detergent; active = well fitted curve in the direction sought with a large enough effect; inconclusive = small, poorly fitted or top-dose-only effect, or another doubt; inactive = no such curve, though single readings can be large; an effect the other way counts as inactive or inconclusive;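 also: plate controls were enzyme without inhibitor for no effect and buffer without enzyme for full effect; nearly all actives have a fitted effect of over 40% in size; top concentration of the series not given in the record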
# Target sequence (P25779 123-467 limits assumed): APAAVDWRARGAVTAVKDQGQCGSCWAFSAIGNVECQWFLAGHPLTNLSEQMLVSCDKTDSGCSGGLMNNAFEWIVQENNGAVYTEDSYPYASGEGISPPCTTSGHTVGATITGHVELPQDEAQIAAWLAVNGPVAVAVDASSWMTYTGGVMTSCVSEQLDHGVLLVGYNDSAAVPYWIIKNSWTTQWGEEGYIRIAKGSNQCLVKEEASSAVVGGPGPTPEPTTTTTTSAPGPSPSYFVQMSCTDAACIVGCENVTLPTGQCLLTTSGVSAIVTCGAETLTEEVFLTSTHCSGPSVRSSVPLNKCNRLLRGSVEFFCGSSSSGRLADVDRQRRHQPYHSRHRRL
#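 Detergent-free condition (0.00005% Triton X-100) in acetate buffer pH 5.5 with DTT. 1.5 nM enzyme and compound were pre-mixed 15 min, then 2 uM Z-FR-AMC substrate added; reaction progress from fluorescence change between first and third reads (60 s).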
# Cruzain inh Det: inhibitors of Trypanosoma cruzi cruzain with detergent. purified cruzain, Z-FR-AMC fluorescence, 0.01% Triton. P25779. AID 1478. Potency, µM, for inactives: max response, negative = inhibition, hits mostly inhibitors. hit rate 0.43% among 200,000; active = well fitted curve in the direction sought with a large enough effect; inconclusive = small, poorly fitted or top-dose-only effect, or another doubt; inactive = no such curve, though single readings can be large; an effect the other way counts as inactive or inconclusive;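 also: plate controls were neutral wells for no effect and buffer without enzyme for full effect; nearly all actives have a fitted effect of over 40% in size; top concentration of the series not given in the record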
#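 Sodium acetate buffer (100 mM, pH 5.5) containing 5 mM DTT and 0.01% Triton X-100 hosted 1.5 nM cruzain and test compound for 15 min at room temperature. Cleavage of 2 uM Z-FR-AMC was then tracked by fluorescence.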
# Numbers without * were called inactive; ? = inconclusive; . = no result given; & = joins results of further samples; [ ] = dose if it differs, or a comment. Unless noted, calls follow the shape of the dose curve; as a rule, active means well fitted rising curve with a large enough effect; inconclusive means small, poorly fitted or top-dose-only effect; inactive means no such curve, though single readings can be large or run the other way. Potency is read from the fitted curve at half-maximal effect.
SMILES,RE007 growth inh,StopGo reporter,LASV entry inh,NS1 inh,SARS PLP yeast,Marburg entry inh,Cruzain noTriton,Cruzain inh Det
NC(=O)C1CCN(C(=O)CC2(CC(=O)O)CCCCC2)CC1,10%,-13%,-2%,.,1%,5%[46.1 µM],.,.
CCNCc1cc(OCC)c(OCC(=O)NCCc2ccccc2)cc1Cl,-15%,.,?,9%,13%,?,3%,6.9%
CSc1ccc(NC(=O)CC(C)=O)cc1,6%,32%[activator],-10%,3%,4%,19%,-18%,2.3%
O=C(CSc1cccc[n+]1[O-])NN(c1ccccc1)c1ccccc1,10%,8%,.,4%,0%,.,.,.
Cc1c(NS(=O)(=O)c2ccccc2)c(=O)n(-c2ccccc2)n1C,21%,2%,-19%,3%,-1%,?,1%,3.5%
COc1cccc(COC(=O)C2CCN(S(=O)(=O)c3ccc(F)cc3)CC2)c1OC,6%,-8%,4%,.,-6%,?,.,.
Cc1cccc2nc(=S)n(C(=O)c3ccco3)n12,-22%,102%[activator],121%[14.3 µM],14%,-8%,?,10%,0.5%
CN(C)c1nc(N(C)C)n(Cc2c(Cl)cccc2Cl)n1,10%,-27%,13%,.,1%,-2%[46.1 µM],.,.
CCC(C)NC(=O)COc1ccccc1[N+](=O)[O-] (stereo not given),1%,5%,25%,-5%,10%,4%,1%,-3.2%
Clc1ccc(-c2csc(N3CCSCC3)n2)cc1,-9%,37%[activator],20%,11%,-13%,-1%,-5%,-3.2%
CC(NC(=O)C(=O)NCc1cccs1)c1ccccc1 (stereo not given),25%,4%,.,6%,0%,.,.,.
COc1ccccc1-c1ccc(SCc2ccccc2)nn1,-23%,12%,-14%,.,-9%,?,.,.
O=S(=O)(NCCN1CCOCC1)c1cc(Cl)c(Cl)cc1Cl,-26%,62%[activator],.,-10%,0%,.,.,.
CCC1(c2ccccc2)NC(=O)N(CC(=O)Nc2ccccc2C(=O)N2CCCCC2)C1=O (stereo not given),-12%,-12%,-4%,.,0%,1%,.,.
CC(OC(=O)C1CC1C)C(=O)Nc1ncc(Cl)cc1Cl (stereo not given),5%,-1%,12%,.,2%,12%[46.1 µM],.,.
CC(C)(C)c1ccc(C(=O)c2c[nH]c(C(=O)NCc3cccnc3)c2)cc1,5%,0%,3%,11%,10%,?,14%,0.1%
N#CC1=C(N)OC2=C(CCc3ccccc32)C1c1ccccc1 (stereo not given),-26%,?,?,-25%,-13%,?,-2%,-9.6%
Brc1ccc(CSc2ncnc3nc[nH]c23)cc1,0%,-5%,-7%,?,-4%,?,8%,1.0%
CC(=O)Nc1cccc(NC(C)=O)n1,3%,19%,?,2%&6%,0%&4%,7%&7%,-5%,7.4%
C=CCc1c(C)nc2cc(-c3ccc(C)cc3)[nH]n2c1=O,2%,1%,.,15%,-4%,.,.,.
COc1ccc(C(=O)NCc2ccc(C(=O)O)o2)cc1,-5%,4%,-12%[46.1 µM],7%,5%,12%[46.1 µM],.,.
O=C(COC(=O)c1cc([N+](=O)[O-])ccc1N1CCOCC1)Nc1c(Cl)cccc1C(F)(F)F,1%,-24%,?,-2%,-6%,-19%,.,.
CCN1CCN(c2cc(C)c3cc(NC(=O)c4cnccn4)ccc3n2)CC1,-3%,2%,.,-32%,-6%,.,-22%,-2.7%
CC(=O)c1cc2ccc(O)cc2oc1=O,-7%,-16%,.,3%,1%,.,.,.
CCOC(=O)CC(NC(=O)Cn1nnc(-c2ccccc2F)n1)c1ccccc1Cl (stereo not given),11%,-8%&-10%,-18%[46.1 µM],.,0%,?,-8%,-5.8%

# Continuation.
SMILES,RE007 growth inh,StopGo reporter,LASV entry inh,NS1 inh,SARS PLP yeast,Marburg entry inh,Cruzain noTriton,Cruzain inh Det
C=CCN1C(=O)CSc2ccc(C(=O)NCc3ccc(F)cc3)cc21,11%,6%,.,-26%,-2%,.,.,.
Cc1ccc(C)c(CN2C(=O)C(C)Oc3ccc(C)cc32)c1 (stereo not given),6%,0%,-19%,-7%,-1%,?,-7%,-0.8%
Cc1ccccc1NC(=O)c1cccc2c(=O)c3c([nH]c12)CCCC3,.,-6%,5%[46.1 µM],.,.,2%[46.1 µM],3%,-3.7%
Cc1ccccc1NC(=O)C1CC(=O)N(c2ccccc2F)C1 (stereo not given),-15%,-1%,-19%,-11%,4%,-3%,16%,8.2%
COC(=O)[C@H](Cc1ccccc1)NC(=O)c1cc(COc2c(F)cccc2F)on1,5%,17%,.,10%,-25%,.,.,.
Cc1ccc(NC(=O)COC(=O)C2CCC2)cc1S(=O)(=O)N1CCCCC1,-22%,-12%,-8%,.,-5%,1%,.,.
COC(=O)C1CCN(C(=O)COc2ccc(Cl)cc2)CC1,-2%,-9%,-3%,10%,-5%,?,9%,-2.2%
Cc1nc(SCC(=O)N(C)Cc2ccco2)c2c(C)c(C)sc2n1,-2%,?,?,-77%,-5%,7.3µM*,2%,0.5%
Cc1cccc2sc(N(CCCN(C)C)C(=O)CCc3ccccc3)nc12,-17%,-12%,?,0%,-25%,?,2%,-3.8%
Cc1ccc(S(=O)(=O)Cc2nnnn2-c2ccccc2)cc1,-15%,22%,-13%[46.1 µM],4%,2%,1%[46.1 µM],.,.
Cc1ccc(CNC(=O)CSc2c3c(nc4cc(Cl)ccc24)CCCC3)o1,-29%,28µM*,21µM*,-47%,-18%,?,-28%,-11%
O=C(O)CSCC(=O)N(Cc1ccccc1)c1nc(-c2ccccc2)c(-c2ccccc2)s1,14%,38%[activator],-21%[46.1 µM],?,-14%,12%[46.1 µM],.,.
Nn1c(SCc2c(F)cccc2F)nnc1-c1ccccn1,1%,32%[activator],6%,3%,0%,?,.,.
Cc1ccc2nc3[nH]c(=O)[nH]c(=O)c3c(N)c2c1,-6%,-4%,10%[46.1 µM],.,.,?,.,.
Cc1nc2ccccc2n1CC(O)COC1CCCCC1 (stereo not given),-5%,?,-12%,-7%,14%,16%,8%,-0.9%
CC1=NC(C#N)=C(C#N)NC(C)(C)C1,19%,2%,16%,.,-4%,-23%[46.1 µM],.,.
O=C(CSc1nnc2ccccn12)N1CCc2ccccc2C1,-7%,30%[activator],4%,-12%,5%,8%,-4%,5.6%
OC(CNCC1CCCO1)Cn1c2ccc(Br)cc2c2cc(Br)ccc21 (stereo not given),-13%,?,-13%,4%,-2%,?,?,-14%
Cc1cc2c(cc1C)CSC(c1ccccc1OC(=O)C(C)(C)C)SC2,-1%,?,?,5%,-22%,-35%,-16%,-0.7%
COc1ccc(-c2cc3nc(C)c(CCC(=O)N4CCN(c5cccc(Cl)c5)CC4)c(C)n3n2)c(OC)c1,.,0%,-2%[46.1 µM],.,.,-1%[46.1 µM],29%,-4.8%
Nc1ccc(C2CCCc3nonc32)c2nonc12 (stereo not given),-14%,1%,12%,2%,-2%,22%,5%,-2.8%
Cc1ccc(C(=O)NCC(=O)NCC(=O)OCC(=O)c2ccc([N+](=O)[O-])cc2)cc1,-8%,-19%,0%,-6%,5%,?,0%,2.7%
COc1cccc(C(=O)Oc2ccc(/C=N/NC(=O)c3ccncc3)cc2OC)c1,3%,-26%,?,2%,0%,6%,.,.
CN(C)C(=O)C#Cc1ccccc1,-3%,11%,?,-7%,0%,-7%,.,.
O=C(CCNC(=O)c1ccccc1Cl)NCC(c1ccco1)N1CCCC1 (stereo not given),-9%,2%,1%[46.1 µM],.,-6%,8%,.,.

# The list goes on:
SMILES,RE007 growth inh,StopGo reporter,LASV entry inh,NS1 inh,SARS PLP yeast,Marburg entry inh,Cruzain noTriton,Cruzain inh Det
Cc1ccc(S(=O)(=O)N2CCCCC2C(=O)N(C)c2ccccc2)cc1 (stereo not given),6%,-20%,.,-17%,2%,.,.,.
CCC(=O)Nc1nnc(-c2ccncc2)s1,16%,11%,0%,10%,13%,6%,-2%,-7.9%
COc1cc(CNC(=O)c2cc(-c3ccccc3)n[nH]2)cc(OC)c1OC,.,-24%,11%[46.1 µM],.,.,.,-2%,-2.8%
CCOc1ccc(NC(=O)CN(C)CC(=O)Nc2cc(Cl)ccc2C#N)cc1OCC,1%,-6%,-12%,-1%,-7%,14%,?,2.1%
CC1CC(C)CN(S(=O)(=O)c2cccc(C(=O)OCCN3CCCC3=O)c2)C1 (stereo not given),7%,0%,-11%,-2%,2%,-2%,?,1.1%
COC1C/C(=N\O)C2OC(c3ccccc3)OCC2O1 (stereo not given),31%,15%,-4%,-2%,1%,?,7%,1.2%
CCOC(=O)c1c(NC(=O)Cn2c(C)nc3ccccc32)sc2c1CCC2,6%,-8%,-11%,11%,0%,?,-4%,-3.3%
CCOC(=O)C(=O)NN=C(c1ccccc1)c1ccccc1,5%,-10%,9%[46.1 µM],3%,0%,-1%[46.1 µM],.,.
Cc1nc(N/C(N)=N/S(=O)(=O)c2ccc([N+](=O)[O-])cc2)nc2ccccc12,0%,25%,?,-1%,11%,15%,-14%,-4.1%
C(=NN=C1c2ccccc2-c2ccccc21)c1ccc2c(c1)OCO2,6%,24%,4%,.,.,0%,.,.

# Exported tab-delimited: entries from further up
Molecule	RE007 growth inh	StopGo reporter	LASV entry inh	NS1 inh	SARS PLP yeast	Marburg entry inh	Cruzain noTriton	Cruzain inh Det
Cc1ccc(S(=O)(=O)N2CCCCC2C(=O)N(C)c2ccccc2)cc1 (stereo not given)	6%	-20%	.	-17%	2%	.	.	.
CCC(=O)Nc1nnc(-c2ccncc2)s1	16%	11%	0%	10%	13%	6%	-2%	-7.9%
COc1cc(CNC(=O)c2cc(-c3ccccc3)n[nH]2)cc(OC)c1OC	.	-24%	11%[46.1 µM]	.	.	.	-2%	-2.8%
CCOc1ccc(NC(=O)CN(C)CC(=O)Nc2cc(Cl)ccc2C#N)cc1OCC	1%	-6%	-12%	-1%	-7%	14%	?	2.1%
CC1CC(C)CN(S(=O)(=O)c2cccc(C(=O)OCCN3CCCC3=O)c2)C1 (stereo not given)	7%	0%	-11%	-2%	2%	-2%	?	1.1%
COC1C/C(=N\O)C2OC(c3ccccc3)OCC2O1 (stereo not given)	31%	15%	-4%	-2%	1%	?	7%	1.2%

# Assay outcomes: PubChem, National Center for Advancing Translational Sciences (NCATS)
